Sa growth 42C: inhibitors of Staphylococcus aureus growth at 42 °C | 170,000 compounds, 0.53% hits | S. aureus RN4220 growth, OD600, 20 h; active compounds read low | relative growth, % (no concentration beside the values) | AID 720641;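 active means growth at 42 °C up to 50% and 20 or more points under that at 30 °C, or under 10% at both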;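 further: 300 nL library stock went into each well; scaled to the means of positive and negative controls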
HCMV NEC inh: cytomegalovirus nuclear egress complex inhibition; HTRF UL50-UL53 interaction, normalized percent inhibition; inhibition, % (no concentration beside the values); 190,000 compounds, 0.15% hits; AID 1918969;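 active means both replicates at 50% or more, plus weaker picks with an unusually low signal ratio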;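 further: stock transfer was 100 nL into about 20 µL; 0% = negative control wells and 100% = wells with untagged competitor protein; inactives centre near -12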
GIV Gai3 FP: GIV-Galpha-i interaction inhibition; P08753; Galpha-i3/FITC-GIV peptide fluorescence polarization, 90 min; active compounds read low; scaled: aluminum fluoride 0%, vehicle 100%; percent of control (FP), % (no concentration beside the values); 210,000 compounds, 0.42% hits; AID 1224905;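 active means replicate mean at 85% of control or lower, very high polarization wells dropped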;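 further: wells of about 15 µL received 100 nL stock; the first replicate is given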
Target sequence (P08753 whole entry, looked up): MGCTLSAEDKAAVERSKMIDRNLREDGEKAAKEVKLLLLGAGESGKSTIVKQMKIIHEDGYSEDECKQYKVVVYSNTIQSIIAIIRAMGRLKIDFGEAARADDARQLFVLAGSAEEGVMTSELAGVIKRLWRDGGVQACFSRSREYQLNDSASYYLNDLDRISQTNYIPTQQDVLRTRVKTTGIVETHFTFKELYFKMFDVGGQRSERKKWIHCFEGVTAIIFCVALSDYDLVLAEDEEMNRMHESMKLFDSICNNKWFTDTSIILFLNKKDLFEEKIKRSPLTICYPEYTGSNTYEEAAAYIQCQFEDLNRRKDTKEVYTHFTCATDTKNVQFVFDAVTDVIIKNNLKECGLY
Sa growth 42C second temp: also measured in Sa growth 42C; calls as there; relative growth, %; measured here: growth at 30 °C;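 optical density after 20 h as mean of two plates; 100% = untreated growth and lower means inhibition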
* marks the source's active call; other numbers are inactive results; . = not tested or not shown; & = joins results of further samples.

The line under a structure holds: Sa growth 42C	Sa growth 42C second temp	HCMV NEC inh	GIV Gai3 FP
- Cc1ccccc1CN1CCC(CNC(=O)c2c(C)oc3ncnc(N4CCCCC4)c23)CC1
→ 95	97	.	107
- CCOc1ccc2c(c1)sc(=NC(=O)c1cc3ccccc3cc1OC)n2C
→ 86	82	.	104
- CN(C)/N=C/C=C1\CC/C(=C\c2ccccc2)C1=O
→ 94	93	-57	.
- CCC(C)N1C(=O)S/C(=C/c2ccc3c(c2)n(C)c(=O)n3C)C1=O (stereo not given)
→ 89	77	.	99
- O=C(NCCCN1CCCC1)c1cc2c(Cl)nc3ccccc3c2s1
→ 102	89	.	110
- O=C(O)CCC(=O)Nc1ncccc1OCc1ccc(Cl)c(Cl)c1
→ 92	86	-17	101
- Cc1ccccc1CNC(=O)c1ccc(C2SCC(=O)N2Cc2ccccc2)cc1 (stereo not given)
→ .	.	11	121
- Cn1c(C(=O)NCc2ccccc2F)cc2oc3ccccc3c21
→ 104	95	-2	101
- COc1cccc(C2=CC(c3cccc(OC)c3)n3ncnc3N2)c1 (stereo not given)
→ 92	83	.	96
- COc1cc2[nH]c(=O)n(CCCC(=O)NC3CCCC3)c(=O)c2cc1OC
→ 105	97	.	99
- O=C(OCC(=O)c1c[nH]c2ccccc12)c1cncc(Br)c1
→ 101	90	-7	.
- O=C(NCCC1=CCCCC1)c1cnc2sc3c(n2c1=O)CCC3
→ .	.	-22	104
- Cn1ccnc1SCCS(=O)(=O)c1ccccc1
→ 116	88	-12	107
- C=CCNC(=O)CCc1nc2sc3c(c2c(=O)[nH]1)CCCCC3
→ .	.	-23	98
- Cc1ccc(NC(=O)c2ccc3snnc3c2)cc1
→ 109	91	-6	105
- O=C(CSc1nc2c(cnn2-c2ccc(F)cc2)c(=O)[nH]1)Nc1ccccc1C(F)(F)F
→ 94	107	-13	112
- Cc1nc2c(Cl)c(Cl)ccc2s1
→ 93	88	-14	101
- CC(=O)Nc1ccc2nc(SCCOc3ccccc3Cl)sc2c1
→ 37	13	-9	102
- CC(=O)c1c(C)oc2c1cc(NS(=O)(=O)c1ccc(C(C)(C)C)cc1)c1ccccc12
→ 91	85	-40	101
- CN(C)C(=O)c1cccnc1SCCS(=O)(=O)c1ccccc1
→ 103	91	-1	101
- Cc1ccccc1NC(=O)C1CCN(Cc2cnn(-c3ccccc3)c2-n2cccc2)CC1
→ .	.	-17	113
- COc1ccc(N2CCN(C(=O)CCNS(=O)(=O)c3ccccc3)CC2)cc1
→ 228	102	-2	115
- CCCCc1n[nH]c2c1/C(=N\O)CC(c1ccccc1)C2 (stereo not given)
→ 101	87	-9	.
- Cc1cccc(OCC(=O)OC2CCN(C)CC2)c1
→ 103	79	-7	105
- Cc1ccc2nc(NC(=O)NC3CC(=O)N(c4ccc5c(c4)OCCO5)C3)sc2c1 (stereo not given)
→ 112	96	-5	100&104
- CC(C)CCn1c(SCc2cccc(F)c2)nc2ccsc2c1=O
→ 73	58	.	100
- CCc1ccc2occ(CC(=O)Nc3c(C(=O)c4ccccc4)oc4ccccc34)c2c1
→ 87	87	0&-30	109&103
- c1ccc(Nc2ccccn2)nc1
→ 104	81	-8	100
- O=C1CC(C(=O)Nc2ccc3c(c2)OCO3)n2ncnc2N1 (stereo not given)
→ .	.	26	102
- O=C(N/C=C/n1cnc2cc(C(F)(F)F)ccc21)c1cccs1
→ 98	70	-42	.
- CC1CC2CC(=O)CC(C1)C2 (stereo not given)
→ 94	90	-10	106
- CCOC(=O)C1=C(C)NC(=O)C(C(N)=O)C12CCCCC2 (stereo not given)
→ 94	103	4	.
- CCOC(=O)c1c(NC(=O)COc2ccc(C)cc2C(C)(C)C)sc2c1CCC(C)C2 (stereo not given)
→ 108	92	-49	107
- CC(=O)Nc1ccc(NC(=O)CSc2nc3ccccc3nc2N2CCC(C)CC2)cc1
→ 88	88	-28	106
- COc1ccc(CCNc2nc3c(-c4cccc(C)c4)nnn3c3ccccc23)cc1OC
→ 89	100	-16	110
- CN1C(=O)N(C)C2(c3ccccc3)NN3C(=O)CSC3=NC12c1ccccc1 (stereo not given)
→ 100	87	-2	.
- CCCSc1ncc(Cl)c(C(=O)Nc2c(C)n(C)n(-c3ccccc3)c2=O)n1
→ 89	82	-23	102
- C=CCn1c(SCC(=O)NCc2ccc3c(c2)OCO3)nnc1-c1ccccc1F
→ 108	99	0	.
- Cc1cc(NC(=O)NC(c2ccccc2)c2nnc(-c3ccccc3)o2)ccc1Br (stereo not given)
→ .	.	-11	100
- CC(C)(C)c1ccc(CSc2nc3c(c(=O)[nH]2)CCCC3)cc1
→ 100	100	-2	106
- Cc1cc(Sc2ccccn2)nc(N)n1
→ 96	84	-2	94
- CCOC(=O)C1CCN(C(=O)c2cc(N(C)S(=O)(=O)c3ccccc3)ccn2)CC1
→ .	.	-38	99
- COc1cccc(-n2nnc(-c3nc(-c4cccs4)no3)c2N)c1
→ 117	87	.	98
- CC1CCCCN1C(=O)CSc1nc(-c2ccccc2)cc(C(F)(F)F)n1 (stereo not given)
→ 101	96	.	102
- COc1ccc(NC(=O)c2ccc3nonc3c2)cc1
→ 115	90	-19	101
- CC(C)CNc1n[nH]c(=S)s1
→ 23	43	-22	.
- O=C(Nc1ccc(N=Cc2ccccc2O)cc1)c1ccccc1O
→ 98	93	-2	107
- COC(=O)C1=CN(C2CC2)C=C(C(=O)OC)C1c1ccsc1
→ 89	91	-38	107
- O=C(O)c1cc(NC(=O)c2ccc(Cl)cc2)cc(C(=O)O)c1
→ .	.	-12	101
- Nc1c(C(=O)O)sc2nc(-c3ccccc3)cc(C(F)(F)F)c12
→ 86	51	-9	108
- O=S(=O)(Nc1ccccc1O)c1ccc2ccccc2c1
→ 60	54	2	171
- CCc1ccc(NC(=O)C2CCN(c3nnc(-n4cccc4)s3)CC2)cc1
→ 96	92	.	109
- COc1cc(/C=N/n2c(=S)[nH]nc(C)c2=O)ccc1OCC(=O)N1CCOCC1
→ 96	92	-29	.
- CC(C)Nc1cnn(C23CC4CC(CC(C4)C2)C3)c(=O)c1Cl
→ 102	86	.	105
- O=C(CSc1cn(CCNC(=O)c2ccccc2F)c2ccccc12)Nc1ccccc1F
→ 97	87	-11	103
- CC(C)NC(=S)Nc1cccc(C(=O)O)c1
→ 97	94	3	104
- O=C(CSc1nc2ccsc2c(=O)n1NC(=O)c1ccccc1)NCc1ccco1
→ 99	79	-35	102
- CCCn1c(C)cc(/C=C(\C#N)C(=O)OCn2nnc3ccccc3c2=O)c1C
→ 102	99	-4	.
- CN(C)C(Cc1ccccc1)C(=O)c1cccn1C (stereo not given)
→ 100	99	-7	.
- CC1=C(C(=O)N2CCN(c3ccccc3)CC2)C2(CCN(S(C)(=O)=O)CC2)OC1=O
→ 103	91	-17	99

More compounds
The line under a structure holds: Sa growth 42C	Sa growth 42C second temp	HCMV NEC inh	GIV Gai3 FP
- COC(=O)C1=C(CS(=O)(=O)c2ccc(C)cc2C)NC(=O)NC1c1ccc(C)cc1 (stereo not given)
→ 108	83	-4	102
- O=C(CCN1CCOCC1)Nc1ccc(S(=O)(=O)Nc2cc(Cl)cc(Cl)c2)cc1
→ 96	83	-14	102
- O=C1COc2ccc(S(=O)(=O)N3CCCC3C(=O)Nc3ccc(F)c(Cl)c3)cc2N1 (stereo not given)
→ .	.	-10	107
- FC(F)(F)c1ccc(SCc2ccc3nonc3c2)nc1
→ 98	86	-20	106
- CCOc1ccc(-n2c(SC(C)C(=O)NC(N)=O)nc3ccccc32)cc1 (stereo not given)
→ 93	95	-11	.
- COC(=O)c1c(NC(=S)N(C)Cc2c(C)nn(C)c2C)sc2c1CCC2
→ 93	100	2	105
- CCCCCn1c(=O)[nH]c2cc(C(=O)N3CCN(c4cccc(Cl)c4)CC3)ccc2c1=O
→ 100	98	16	106
- CCOc1ccc(NC(=O)c2oc3ccc(C)cc3c2C)c2cccnc12
→ .	.	-24	97
- CCN(CC)c1cc(NC2CCCCC2)c2c3c(onc13)-c1ccccc1C2=O
→ 116	83	-60	-7.2*
- Cn1nc(C(=O)N2CCN(c3ccccc3)CC2)c2c1-c1ccccc1S(=O)(=O)C2
→ 101	88	-11	101
- Cc1cc(NC(=O)C(C)C)n(-c2nc3ccccc3s2)n1
→ 101	95	0	.
- COc1ccc(CCN2Cc3nc4ccccc4c(=O)n3CC2=O)cc1
→ 105	94	4	.
- CC(=O)Nc1scc2c1c(=O)oc1ccccc12
→ 102	98	-4	104
- COc1ccccc1Cc1nc2ccccc2nc1SCC(=O)Nc1cc(Cl)ccc1OC
→ 88	91	.	102
- COc1cc(OC)nc(NC(=O)C(C)C)n1
→ 110	87	6	.
- O=C(NC1CC(=O)N(c2ccccc2)C1)c1ccco1 (stereo not given)
→ 104	83	.	99
- COc1ccc(N2C(=O)CCS2(=O)=O)cc1S(=O)(=O)NCC1CCCO1 (stereo not given)
→ .	.	9	98
- Cc1ccc(CN2CCN(C3CCN(S(C)(=O)=O)CC3)C(=O)C2=O)cc1
→ .	.	-9	100
- COc1cc(OC)c(NC(=O)NCCn2c(-c3ccncc3)nc3cccnc32)cc1Cl
→ .	.	1	103
- O=C1C2C3c4ccccc4C(c4ccccc43)C2C(=O)N1/N=C/c1ccco1 (stereo not given)
→ 105	101	38	107
- O=C(CCN1C(=O)c2ccccc2C1=O)NCCc1ccccc1
→ 103	99	-17	102
- COc1ccc(NS(=O)(=O)N(C)C)c(OC)c1
→ 87	80	-26	104
- O=C(NCCc1cccs1)c1ccc(Cn2c(SCc3ccc(F)cc3)nc3cccnc32)cc1
→ 101	81	-40	105
- COc1ccc(OC)c(S(=O)(=O)N2CCN(c3cc(N4CCCCC4)nc(C)n3)CC2)c1
→ .	.	-11	95
- Cc1ccc(N(CC(=O)N2CCN(c3ccccc3F)CC2)S(=O)(=O)c2c(C)noc2C)cc1
→ 113	88	-24	101
- O=c1cc(-c2cccs2)[nH][nH]1
→ 87	75	-11	.
- COC(=O)[C@H](NC(=O)c1cc(-c2ccccc2)nc2ccccc12)c1ccccc1
→ .	.	-6&-32	104
- CC(C)(C)NC(=O)CN1CCN(CCC#N)CC1
→ 79	96	-22	.
- CCN(CC)C(=O)c1ccc(C(C)(C)C)cc1
→ 107	101	5	.
- CC(c1ccccc1)N(Cc1ccccc1)C(=S)Nc1ccccc1 (stereo not given)
→ 117	83	.	104
- O=c1cc(COc2ccccc2)nc2sccn12
→ 108	87	-5	101
- COc1ccccc1C(=O)N1CCOCC1
→ 98	83	-13	.
- Nc1nc(N)c2c(n1)CCCC2
→ 83	64	-12	101
- CCc1ccc(-n2c(=O)c3ccc(C(=O)NCCc4ccccc4)cc3n(Cc3ccccc3C#N)c2=O)cc1
→ 97	101	8	104
- COc1ccc(NC(C)=O)cc1NC(C)C(=O)N1CCCc2ccccc21 (stereo not given)
→ 84	95	14	.
- O=C(O)C1CCCN(C(=O)c2cnn(-c3ccccc3)c2-n2cccc2)C1 (stereo not given)
→ 106	87	-14	104
- CCNC(=O)c1ccc(NC(=O)N2CCCCc3ccccc32)cc1
→ 87	91	.	101
- Cc1ccc(Nc2nc(=O)c3cccnc3s2)cc1
→ 90	88	-27	105
- CN(CC(=O)O)C(=S)c1ccccc1
→ 99	89	-33	107

Full records, looked up by structure. Screens in order: Sa growth 42C, Sa growth 42C second temp, HCMV NEC inh, GIV Gai3 FP
Profile of CC(C)(C)NC(=O)CN1CCN(CCC#N)CC1 = 79, 96, -22, .
Profile of Nc1nc(N)c2c(n1)CCCC2 = 83, 64, -12, 101
Profile of Cc1ccc(Nc2nc(=O)c3cccnc3s2)cc1 = 90, 88, -27, 105
Profile of COc1ccc(OC)c(S(=O)(=O)N2CCN(c3cc(N4CCCCC4)nc(C)n3)CC2)c1 = ., ., -11, 95
Profile of CCNC(=O)c1ccc(NC(=O)N2CCCCc3ccccc32)cc1 = 87, 91, ., 101

Quoted at random: four entries already listed.
The line under a structure holds: Sa growth 42C	Sa growth 42C second temp	HCMV NEC inh	GIV Gai3 FP
- CC1CCCCN1C(=O)CSc1nc(-c2ccccc2)cc(C(F)(F)F)n1 (stereo not given)
→ 101	96	.	102
- COc1ccc(N2CCN(C(=O)CCNS(=O)(=O)c3ccccc3)CC2)cc1
→ 228	102	-2	115
- COc1ccc(OC)c(S(=O)(=O)N2CCN(c3cc(N4CCCCC4)nc(C)n3)CC2)c1
→ .	.	-11	95
- c1ccc(Nc2ccccn2)nc1
→ 104	81	-8	100

From PubChem BioAssay
